UCH37 inh – human UCH37 deubiquitinating enzyme inhibition; Q9Y5K5; purified proteasome/UCH37, Ub-AMC cleavage fluorescence; inhibition, % (no concentration beside the values); 330,000 compounds, 0.33% hits; AID 588478;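 active = mean of two replicates above 20%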;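 note: 0% = compound-free wells with enzyme and 100% = wells lacking proteasome; stock transfer was 100 nL into about 20 µL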
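Test system – human UCH37 enzyme supplied as purified proteasome complex · Incubation – 30 min preincubation with enzyme, 25 min cleavage at room temperature · Detection – AMC fluorescence from Ub-AMC cleavage, excitation 355 nm, emission 460 nm · Benchmarks – no-proteasome wells (full inhibition) and compound-free wells (no inhibition)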
Bfl-1 A1 inh – inhibitors of the anti-apoptotic protein A1, read as caspase activation; MEF A1-2A-BIM cells, Caspase-Glo 3/7 luminescence, 3 h; percent of clofoctol response, vehicle zero; AID 2462; caspase activation, % (test concentration not listed); 330,000 compounds, 0.066% hits;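 active = over half of replicate activation scores above 10%, or exactly half above 10 with the replicate mean above 10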;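 note: wells of about 30 µL received 50 nL stock; many hits fall short of the cut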
FGF22 binding – binders of recombinant human FGF22 by thermal shift; Q9HCT0; SYPRO orange fluorescence; percent of sucrose octasulfate shift, DMSO zero; calls only at 9.99 µM; 340,000 compounds, 1.5% hits; AID 651658;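 active = melting point raised past a set limit in the mean and every replicate; three in four hits are not shown here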
Target sequence (Q9HCT0 whole entry, looked up): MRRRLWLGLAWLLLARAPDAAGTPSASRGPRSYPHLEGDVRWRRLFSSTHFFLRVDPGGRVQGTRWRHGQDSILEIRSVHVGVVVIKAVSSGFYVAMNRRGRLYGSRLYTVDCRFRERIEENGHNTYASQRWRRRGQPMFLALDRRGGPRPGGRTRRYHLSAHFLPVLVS
E coli growth – inhibitors of Escherichia coli growth. OD600 absorbance (concentration not given with the values). OD600, 23 h; active compounds read low. 330,000 compounds, 0.21% hits;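 active = OD600 absorbance below the run mean of sample wells minus 3.6 SD, in any replicate, cut at about 0.56 in these data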;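 note: stock transfer was 300 nL into about 60 µL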
Beta apoptosis – beta cell apoptosis inhibition; 300,000 compounds, 0.8% hits; protection from apoptosis, % (no concentration beside the values); AID 435005; INS-1E cytokine-induced death, ATP luminescence, 48 h; percent of positive-control rescue, neutral wells zero;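 active = all replicates at 75% or more, or half of them and the mean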;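 note: 0% = cytokine-treated negative control wells and 100% = positive control rescue; higher means more ATP so stronger rescue from cytokine killing; wells of about 40 µL received 100 nL stock; the first replicate is given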
rRNA inh HTS – inhibits bacterial ribosomal RNA function over humanized ribosomes; E. coli WT GFP vs humanized-ribosome RFP mutants, fluorescence, 24 h; active compounds read low; DMSO median 0, no signal -100; GFP signal change (wild-type ribosome), % (concentration not given with the values); 350,000 compounds, 1.6% hits; AID 720706;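 active = significant combined selectivity score with lowered wild-type GFP, culture density cut under 30%, mutant RFP and density less affected; inactive = any of these conditions unmet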; note: one replicate is shown; some compounds called inactive have numbers as strong as hits
T cruzi inh – blocks replication of Trypanosoma cruzi | T. cruzi beta-gal in NIH3T3, luminescence, 90 h | inhibition, % (test concentration not listed) | 300,000 compounds, 1.4% hits | AID 1885;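 active = mean inhibition across valid replicates above about 55%, limit read from the data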;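 note: signal also drops with host cell toxicity which is not excluded here; 0% = plate median of DMSO wells and 100% = zero luminescence signal; higher percent means less beta-gal luminescence so fewer parasites; stock transfer was 50 nL into about 50 µL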
AF4-AF9 inh – blocks AF4 peptide binding to human AF9; P42568; AlphaScreen, biotin-AF4 peptide binding to FLAG-AF9; inhibition, % at 10 µM; 350,000 compounds, 0.47% hits; AID 651704;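 active = every replicate reaching a set inhibition limit, whatever the replicate mean, cut at about 25% in these data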;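 note: 0% = plate neutral control median and 100% = total signal loss; the record names both 10 and 1 µM as test concentration; the first replicate is given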
Target sequence (P42568 whole entry, looked up): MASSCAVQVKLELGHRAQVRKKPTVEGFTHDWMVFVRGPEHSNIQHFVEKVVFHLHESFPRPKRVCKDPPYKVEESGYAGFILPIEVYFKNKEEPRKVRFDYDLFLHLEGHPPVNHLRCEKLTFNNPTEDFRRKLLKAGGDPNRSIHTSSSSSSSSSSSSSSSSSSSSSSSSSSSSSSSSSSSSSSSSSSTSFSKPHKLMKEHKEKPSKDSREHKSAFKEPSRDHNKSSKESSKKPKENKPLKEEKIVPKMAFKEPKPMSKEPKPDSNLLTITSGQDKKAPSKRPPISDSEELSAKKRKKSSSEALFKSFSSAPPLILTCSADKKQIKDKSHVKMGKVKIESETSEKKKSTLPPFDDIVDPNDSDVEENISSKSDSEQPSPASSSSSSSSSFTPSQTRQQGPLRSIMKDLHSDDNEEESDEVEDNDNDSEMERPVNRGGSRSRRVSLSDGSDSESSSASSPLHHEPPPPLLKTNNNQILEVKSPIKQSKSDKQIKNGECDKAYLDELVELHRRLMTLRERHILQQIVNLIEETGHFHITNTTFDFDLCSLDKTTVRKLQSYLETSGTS
rRNA inh HTS OD600 – second read-out of rRNA inh HTS, no call of its own (marks repeat the call); OD600 change, %; measured here: OD600 growth;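 optical density of the mix in the first replicate; 0 = DMSO median and -100 = no signal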
rRNA inh HTS RFP – recorded beside rRNA inh HTS, whose call it bears; RFP signal change, %; measured here: RFP humanized mutant strains;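 first replicate; 0 = DMSO median and -100 = no signal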
Numbers without * were called inactive; i = inactive; x = not tested or not shown.

Each structure is followed by: UCH37 inh, E coli growth, Beta apoptosis, rRNA inh HTS OD600, rRNA inh HTS RFP, T cruzi inh, Bfl-1 A1 inh, rRNA inh HTS, FGF22 binding, AF4-AF9 inh
CCCCCOC(=O)Cn1c(=O)c2c(nc(N3CCOCC3)n2C)n(C)c1=O
  1.9, 0.678, x, x, x, 3.6, -0.1, x, x, x
COc1ccc(NC(=O)Cn2c(=O)n(-c3ccccc3)c(=O)c3sccc32)c(OC)c1
  1.9, 0.681, 2.5, -1.3, 1.0, -5.6, 0.3, 5.7, i, 1.6
O=C(CN1C(=O)COc2ccccc21)NCCCN1CCOCC1
  -0.1, 0.669, -7.4, -9.1, -2.9, -2.1, 0.3, 2.6, i, -2.3
CC1CCCCC1Nc1nc2ccc(Cl)cc2n2cnnc12 (stereo not given)
  4.0, 0.635, 20.4, 4.1, 1.2, 13.3, 0.3, -4.7, i, -2.9
COc1ccc(CC(=O)OCC(=O)N2CCCc3ccccc32)cc1
  0.8, 0.673, -0.5, -1.8, -0.4, -11.6, 2.7, -3.7, i, -2.4
O=c1c2oc3ccccc3c2ncn1Cc1cccc(Cl)c1
  2.8, 0.659, 2.3, 3.7, 4.7, -3.3, -0.7, 16.5, i, -2.6
O=C(O)C1CCCN(S(=O)(=O)c2ccc(Br)cc2)C1 (stereo not given)
  0.6, 0.735, -10.3, x, x, -1.1, 0.7, x, x, x
CCc1nnc(NC(=O)c2nn(-c3ccccc3)nc2C)s1
  5.6, 0.648, 3.2, 3.0, -0.2, -5.6, 0.2, -9.1, i, -3.3
COc1ccc(C(C)NC(=O)C2CCCO2)cc1OC (stereo not given)
  1.3, 0.732, -4.0, 9.5, -3.7, -32.2, -0.7, 19.0, i, 6.1
O=C(Nn1c(-c2ccc(F)cc2)nc2ccccc2c1=O)c1cccnc1
  1.1, 0.682, x, -0.4, 1.3, -4.1, 1.0, 11.6, i, -0.4
COc1ccc(S(=O)(=O)NCCCn2ccnc2)cc1Cl
  5.1, 0.664, -6.7, -4.2, -1.3, -25.1, 2.5, 3.3, i, -0.3
OC[C@H]1O[C@@H](O[C@@H]2[C@@H](CO)O[C@@](O)(CO)[C@H]2O)[C@H](O)[C@@H](O)[C@H]1O
  1.9, x, 4.0, x, x, -7.8, 0.3, x, i, -1.4
CC(C)c1ccc(CN(C)CC(O)c2ccccc2)cc1 (stereo not given)
  3.2, 0.715, 4.8, 6.3, -4.4, 22.1, 0.3, 7.5, x, -0.4
O=C(Cc1ccc(Cl)cc1)c1c[nH]c(C(=O)NCCCN2CCOCC2)c1
  1.7, 0.621, -12.6, -8.6, -5.5, -23.1, 0.8, 3.8, i, 3.1
Cc1ccc(Cl)cc1N1CCN(C(=O)c2ccc(CN3CCOCC3)cc2)CC1
  3.8, 0.704, -1.4, -74.5, -33.7, 55.9*, -0.1, -51.1, i, 6.8
CCCNC(=O)c1ccccc1N1CCN(CCCCN2C(=O)C3CCCCN3C2=O)CC1 (stereo not given)
  -2.4, 0.634, -3.4, 0.1, -0.1, 4.2, -0.4, -0.1, i, 3.1
CCOC(=O)N1CCN(Cc2nc3cc(NC(=O)CC(C)C)ccc3n2CC)CC1
  0.1, 0.656, 1.1, 5.4, 1.2, -0.2, -0.8, 5.7, i, -0.9
O=C(O)Cn1nc(-c2ccccc2)cc1-c1ccccc1
  -0.2, 0.664, 0.9, 10.8, 0.9, -3.7, -0.9, 5.0, i, -2.2
COc1ccc(CC2(CO)CCN(Cc3cnn(C)c3C)CC2)cc1
  1.3, 0.631, 3.5, 14.4, 1.1, 1.5, 1.1, 22.6, i, 1.4
Cc1c(C(=O)N2CCC(N3CCSCC3)CC2)oc2c(F)cccc12
  3.8, 0.677, -4.1, -1.1, -0.4, -15.0, -0.7, -0.3, i, 0.2
COCC(=O)N(Cc1cc2cc(OC)ccc2[nH]c1=O)c1ccccc1
  -21.5, 0.77, -4.9, x, x, 2.5, -0.2, x, x, x
COc1cccc(N2CCN(C3CCCC(C)C3)CC2)c1 (stereo not given)
  1.3, 0.687, 2.3, -14.8, -9.1, -1.2, 0.8, -7.8, i, 11.5
CSc1cccc(CNC(=O)C2CCC(=O)N(CC3CCCCC3)C2)c1 (stereo not given)
  0.5, 0.704, -7.8, -6.2, 4.1, -2.4, 0.4, -8.5, i, -7.3
CCCCCCCc1nc2sc3c(c2c(=O)n1N)CC(C)(C)OC3
  1.7, 0.674, 0.1, 3.9, 0.3, -6.3, 0.2, 6.0, i, -5.9
Cc1ccc(CC2CC(=O)N(c3nc(C)cc(C)n3)C2=O)cc1 (stereo not given)
  0.8, 0.683, -5.4, x, x, -3.1, 0.3, x, i, -1.0
O=C(NCCC1=CCCCC1)C1CCN(C(=O)Nc2ccccc2)CC1
  3.9, 0.699, -1.3, x, x, -17.8, 0.3, x, x, x
CCOC(=O)C(=O)Nc1cc(C)on1
  1.1, 0.699, 0.1, 12.4, -2.6, -10.7, 0.1, 10.3, i, -1.8
COc1ccccc1NC(=O)N1CCCC1C(=O)NCc1ccccc1 (stereo not given)
  1.3, 0.724, -8.5, x, x, 4.7, -0.2, x, x, x
CC(C)Sc1nc2c([nH]c3ccccc32)c(=O)n1C
  0.2, 0.683, 1.0, 0.8, -2.1, 3.5, 1.0, 9.8, i, 1.1
CC(C)(CC(=O)O)CC(=O)Nc1ccc(Cl)c(Cl)c1
  2.3, 0.647, -1.9, -13.5, -5.0, -4.0, 0.6, -17.0, i, -4.9
O=C(COC(=O)/C=C/c1cccc(C(F)(F)F)c1)NCc1ccco1
  -0.3, 0.633, 4.5, 15.8, -0.4, -12.4, -0.1, 3.5, i, 5.9
Cc1ccc(NC(=O)CN2CCOCC2)cc1Cl
  1.5, 0.687, x, 5.3, 0.9, -5.9, 0.0, 5.4, i, -1.9
O=C1NC(Cc2ccccc2)c2nc3cc(Cl)ccc3c(=O)n2-c2ccccc21 (stereo not given)
  x, x, -2.6, 6.8, 10.1, x, -1.2, 2.0, i, 6.3
O=C(OCc1cnc(Cl)s1)c1ccccc1Cl
  -0.8, 0.694, -5.2, x, x, 9.8, -1.0, x, x, x
CC1CCN(C(=O)c2cccc(S(=O)(=O)N3CCN(c4ccccc4)CC3)c2)CC1
  2.3, 0.652, -23.3, 12.6, 0.8, 12.1, -0.2, 14.1, i, -2.0
CCc1ccc(NC(=O)COC(=O)c2cccs2)cc1
  -0.7, 0.642, x, -3.4, -0.6, -4.9, 1.7, -3.0, i, -3.5
COc1ccccc1N(Cc1ccccc1)S(=O)(=O)c1cccc(C(=O)Nc2ccccn2)c1
  4.3, 0.748, 5.2, -23.1, 1.8, 35.5, 0.1, -25.0, i, 0.9
CCS(=O)(=O)Nc1cc2c3c(c1)CCC(=O)N3CCC2
  0.2, 0.678, 0.1, 8.7, -0.2, -3.8, 2.1, 9.9, i, -1.6
CCn1cc(/C=C(\NC(=O)c2ccc(OC)c(OC)c2)C(=O)NCCCO)c2ccccc21
  16.4, 0.679, 6.4, 11.0, 0.3, 2.7, 2.6, 13.8, i, -3.9
CCOC(=O)C1CCCN(C2CC(=O)N(c3ccc(C)cc3)C2=O)C1 (stereo not given)
  0.3, 0.722, x, 0.7, 1.2, -4.5, 0.3, 8.2, i, -38.6
COc1cc(NC(=O)c2cccs2)c(OC)cc1NC(=O)CCn1nnc2ccccc21
  7.1, 0.699, x, x, x, -6.7, 0.1, x, x, x
O=C(Nc1ncccn1)c1ccc([N+](=O)[O-])o1
  i, 0.49*, -3.7, 10.4*, -4.7*, 12.3, 1.3, -17.7*, i, 1.5
CCn1ncc(C2=NOC(C(=O)Nc3cc(OC)c(Cl)cc3OC)C2)c1C (stereo not given)
  0.3, 0.712, -0.3, x, x, -4.8, 0.2, x, x, x
Cc1ccc(-n2nc3c(c2NC(=O)/C=C\c2ccc4c(c2)OCO4)CSC3)cc1
  -15.3, 0.762, -2.2, 10.5, 9.7, 19.6, 0.1, 9.4, i, 2.8
COc1cc(-c2nc(-c3ccccn3)no2)cc(OC)c1OC
  1.9, 0.683, 2.5, x, x, -14.1, -0.7, x, x, x
Cc1cc(C)c(C)c(S(=O)(=O)N2CCN(C(=O)C3CCC3)CC2)c1C
  0.8, 0.678, -3.3, 0.7, -1.2, 13.3, 0.3, -2.2, i, 1.4
COc1ccc2cc(C=O)n(C)c2c1
  6.3, 0.661, -3.8, -2.0, 10.5, x, 0.4, 11.1, i, 0.0
Cc1ccc(C(=O)O/N=C(\N)c2ccccn2)cc1C
  2.0, 0.609, 6.0, -8.5, -1.8, 0.4, -8.6, -6.8, i, 6.3
COc1ccc(NC(=O)c2sc(NC(=O)COc3ccccc3)nc2C)cc1
  0.7, 0.641, 0.5, x, x, 6.2, -7.0, x, x, x
C=CCn1c(SCC(=O)Nc2ccccc2OC)nc(O)c(CC)c1=O
  3.6, 0.709, -3.1, x, x, -3.4, 0.1, x, x, x
COc1ccccc1C(=O)Nc1ccc(S(=O)(=O)Nc2cc(C)on2)cc1
  1.1, 0.69, -19.3, x, x, -5.3, -0.3, x, x, x

Part of the list above in order of SMILES length, lowest first.
Each structure is followed by: UCH37 inh, E coli growth, Beta apoptosis, rRNA inh HTS OD600, rRNA inh HTS RFP, T cruzi inh, Bfl-1 A1 inh, rRNA inh HTS, FGF22 binding, AF4-AF9 inh
O=C(OCc1cnc(Cl)s1)c1ccccc1Cl
  -0.8, 0.694, -5.2, x, x, 9.8, -1.0, x, x, x
COc1cc(-c2nc(-c3ccccn3)no2)cc(OC)c1OC
  1.9, 0.683, 2.5, x, x, -14.1, -0.7, x, x, x
C=CCn1c(SCC(=O)Nc2ccccc2OC)nc(O)c(CC)c1=O
  3.6, 0.709, -3.1, x, x, -3.4, 0.1, x, x, x
O=C(COC(=O)/C=C/c1cccc(C(F)(F)F)c1)NCc1ccco1
  -0.3, 0.633, 4.5, 15.8, -0.4, -12.4, -0.1, 3.5, i, 5.9
Cc1ccc(-n2nc3c(c2NC(=O)/C=C\c2ccc4c(c2)OCO4)CSC3)cc1
  -15.3, 0.762, -2.2, 10.5, 9.7, 19.6, 0.1, 9.4, i, 2.8

Bioassay records from PubChem.

An excerpt; the hit share may differ from the screen's.
